# Assay outcomes deposited in PubChem BioAssay by several laboratories.
# HIV Env fusion = blocks HIV Env-driven cell-cell fusion | HeLa-JRFL Env/CEM21 cell fusion, luciferase | inhibition, % at 12.3 µM | 360,000 compounds, 1.1% hits;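 active means mean replicate inhibition score of at least 50 and every replicate individually at or above 50; inconclusive means only one of the two criteria met; inactive means mean below 50 and not all replicates reaching 50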;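 further: 0% = plate neutral controls and 100% = maraviroc near 300 nM; one replicate is shown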
# eIF4H inh = inhibitors of RNA binding by human eIF4H. 290,000 compounds, 0.94% hits. inhibition, % at 35 µM. eIF4H fluorescence polarization binding assay. Q15056;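 active means 50% or more with normal probe brightness, or confirmed in later tests; inconclusive means above 50% with abnormal brightness, or retests that disagree; inactive means below 50% or failed in later tests; about a fifth of its hits are not listed in these tables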;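 further: calls also rest on retests at 20 µM and on dose response follow-up; 0% = protein and probe with vehicle and 100% = probe without protein; strong numbers were not always called active; many hits fall short of the cut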
# CSC inhib = cancer stem cell inhibition | AID 2717 | cancer stem cell-like cells viability, luminescence | 300,000 compounds, 1.1% hits | inhibition, % at 7.5 µM;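 active means mean at 75% or more and at least half the replicates too; inconclusive means mean and replicates disagree; tested in HMLE shEcad cells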;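 further: 0% = median of negative and 100% = median of positive control wells; the first replicate is given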
# Rce1 inhib = yeast Ras-converting enzyme inhibition; Q03530; yeast membranes, quenched prenylated peptide cleavage fluorescence; calls only; 290,000 compounds, 0.27% hits; AID 2563;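 active means fall in fluorescence gain of 50% or more versus controls, with final raw signal at or below 3038400; inconclusive means same 50% fall but final raw signal above 3038400; inactive means fall in fluorescence gain under 50%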;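 further: plate controls were neutral control wells for no effect and wells lacking membranes for full effect; tested at 10 µM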
# Target sequence (Q03530 whole entry, looked up): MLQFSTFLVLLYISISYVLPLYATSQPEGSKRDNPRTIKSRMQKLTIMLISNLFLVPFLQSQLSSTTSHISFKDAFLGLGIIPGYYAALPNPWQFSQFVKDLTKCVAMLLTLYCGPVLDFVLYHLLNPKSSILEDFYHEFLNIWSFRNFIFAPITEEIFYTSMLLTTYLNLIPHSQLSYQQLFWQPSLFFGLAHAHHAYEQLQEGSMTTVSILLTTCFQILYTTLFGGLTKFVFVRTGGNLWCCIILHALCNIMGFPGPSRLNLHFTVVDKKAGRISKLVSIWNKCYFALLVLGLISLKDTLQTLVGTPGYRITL
# Yeast UUG start = yeast start codon fidelity modulation; S. cerevisiae UUG-firefly luciferase reporter, luminescence/redox ratio; activity score, % at 18.7 µM; 350,000 compounds, 0.13% hits; AID 602363;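 active means replicate mean at a twofold rise or more, about +100% in these data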;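 further: firefly luciferase made from a UUG start codon reports start codon fidelity; reporter light over untreated wells divided by growth signal over untreated wells; some hits fall short of that in this replicate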
# MT1-MMP act inh = blocks activation of human MT1-MMP. AID 651647. P50281. HT1080 RFP-PRO-GFP cells, GFP/RFP ratio fluorescence, overnight; percent of plate control window, DMSO zero. 360,000 compounds, 0.061% hits. GFP/RFP ratio change, % at 20 µM;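 active means GFP/RFP ratio change of at least 30% with cell ATP level not reduced by more than half and red fluorescence within 50% of control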; further: strong numbers were not always called active
#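 Test system: HT1080 cells expressing an RFP-PRO-GFP fluorescent reporter construct / Compound dosing: single-point 20 µM compound, 1% DMSO / Schedule: cells overnight before dosing, compound overnight, 37 °C, 5% CO2 / Evaluation: GFP/RFP fluorescence ratio / Control set: DMSO and RFP-L50D-GFP cell wells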
# PABP polyA inh = blocks human PABP binding to poly(A) RNA | AID 2014 | inhibition, % at 35 µM | 290,000 compounds, 1% hits | fluorescence polarization | P11940;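 active means 50% or more with normal probe brightness, or confirmed in later tests; inconclusive means above 50% with abnormal brightness, or retests that disagree; inactive means below 50% or failed in later tests; about a fifth of its hits are not listed in these tables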;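 further: calls also rest on retests at 20 µM and on dose response follow-up; controls were probe without protein and protein plus probe with vehicle; some compounds called inactive have numbers as strong as hits; many hits fall short of the cut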
# Target sequence (P11940 whole entry, looked up): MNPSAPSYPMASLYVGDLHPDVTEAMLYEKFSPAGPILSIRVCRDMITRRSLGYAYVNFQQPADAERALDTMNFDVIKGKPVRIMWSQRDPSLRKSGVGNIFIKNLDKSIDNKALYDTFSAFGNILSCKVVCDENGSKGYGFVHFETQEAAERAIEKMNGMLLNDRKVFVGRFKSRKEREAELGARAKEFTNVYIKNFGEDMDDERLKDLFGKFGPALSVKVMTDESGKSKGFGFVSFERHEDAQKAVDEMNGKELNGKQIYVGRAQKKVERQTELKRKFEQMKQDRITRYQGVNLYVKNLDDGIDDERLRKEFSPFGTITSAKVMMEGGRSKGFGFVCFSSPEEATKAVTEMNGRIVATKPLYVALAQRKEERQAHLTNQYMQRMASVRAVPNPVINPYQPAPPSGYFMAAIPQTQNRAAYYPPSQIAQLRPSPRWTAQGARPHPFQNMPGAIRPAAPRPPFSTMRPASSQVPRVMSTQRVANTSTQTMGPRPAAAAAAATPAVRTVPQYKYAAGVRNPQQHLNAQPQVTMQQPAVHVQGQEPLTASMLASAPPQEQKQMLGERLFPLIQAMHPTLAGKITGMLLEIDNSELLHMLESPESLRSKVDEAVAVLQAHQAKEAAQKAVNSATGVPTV
# eIF4H inh retest = further read-out of eIF4H inh, marked with its call; inhibition, %; compound at 20 µM; confirmation average;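 mean of two retest wells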
# PABP polyA inh retest = also measured in PABP polyA inh; calls as there; inhibition, %; compound at 20 µM; confirmation repeats;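 mean of two retest wells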
# MT1-MMP act inh RFP = also measured in MT1-MMP act inh; calls as there; RFP signal change, %; measured here: RFP expression control read;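 0 = vehicle wells; hits needed this value within 50% of zero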
# * marks the source's active call; other numbers are inactive results; i = inactive; ? = inconclusive; · = no result given. These rows are one share of the data. The share of hits here may be higher or lower than overall.
SMILES,HIV Env fusion,eIF4H inh,CSC inhib,Rce1 inhib,Yeast UUG start,MT1-MMP act inh,MT1-MMP act inh RFP,PABP polyA inh,others
CCCC(=O)NC(C)C(c1cccs1)N1CCN(C)CC1 (stereo not drawn),·,1,·,i,-5,-4,2,1,
O=C(Nc1nc(COc2ccccc2)cs1)c1ccccc1F,-20,0,4,i,-14,3,-8,-4,
CC1CC(C)(C)NC(=S)N1CCCC(=O)NCCc1ccc(Cl)cc1 (stereo not drawn),0,6,-22,i,·,-2,2,2,
Cc1onc(-c2c(Cl)cccc2Cl)c1NC(=O)NC1CCSC1 (stereo not drawn),-16,-9,-8,i,16,2,0,-8,
COc1cccc(CNCc2ccco2)c1O,5,1,·,i,5,0,3,4,
COc1ccc(N2CCN(C(=O)COC(=O)[C@@H](NC(=O)c3c(F)cccc3F)C(C)C)CC2)cc1,-4,·,·,·,-27,3,4,·,
Cn1c(=O)n(CC(=O)O)c(=O)c2c1nc1n2CCCN1Cc1ccccc1,-11,-9,-13,i,2,-5,1,6,
COc1ccc(CCNC(=S)Nc2ccc(C(C)C)cc2)cc1,4,2,19,i,-5,-4,-3,-5,
O=c1cc(CO)oc(C(Nc2cccc([N+](=O)[O-])c2)c2ccccn2)c1O (stereo not drawn),14,?,-9,i,-23,1,-1,4,
CC(Cc1ccccn1)NC(=O)c1ccc(OC2CCN(Cc3ccccn3)CC2)cc1 (stereo not drawn),4,7,-8,i,-4,-4,1,12,
CN(C)N=C1c2cc(S(=O)(=O)N3CCOCC3)ccc2-c2ccc(S(=O)(=O)N3CCOCC3)cc21,9,6,39,i,·,10,-3,-4,
COc1ccc(C(C)=O)cc1CSc1ccccn1,-6,-5,·,i,·,1,0,-11,
CCc1cc2c3c(c1)C(C)CC(C)(C)N3C(=O)/C2=C1\SC(=O)NC1=O (stereo not drawn),-2,-6,27,i,-4,6,-18,0,
O=C(Nc1nc2ccccc2c(=O)[nH]1)c1ccccc1SCc1ccccc1,5,-10,11,i,-18,-1,2,-13,
COc1ccc(C2=C3C(=O)OCC3Cc3ncn(Cc4ccccc4)c32)cc1 (stereo not drawn),6,·,-20,·,-11,-1,-5,·,

# Reprinted at random: 2 entries already listed, in no set order.
SMILES,HIV Env fusion,eIF4H inh,CSC inhib,Rce1 inhib,Yeast UUG start,MT1-MMP act inh,MT1-MMP act inh RFP,PABP polyA inh,others
CCCC(=O)NC(C)C(c1cccs1)N1CCN(C)CC1 (stereo not drawn),·,1,·,i,-5,-4,2,1,
COc1ccc(N2CCN(C(=O)COC(=O)[C@@H](NC(=O)c3c(F)cccc3F)C(C)C)CC2)cc1,-4,·,·,·,-27,3,4,·,

# Following part:
SMILES,HIV Env fusion,eIF4H inh,CSC inhib,Rce1 inhib,Yeast UUG start,MT1-MMP act inh,MT1-MMP act inh RFP,PABP polyA inh,others
Cc1nc2cc(C(=O)NCCN3CCOCC3)ccc2n1-c1ccc(F)cc1F,·,6,-3,i,-13,0,3,18,
CCOC(=O)c1cc(-c2cccs2)[nH]n1,11,19,-21,i,·,-1,-2,-4,
S=C(Nc1ccccc1Cl)NC1CCN(Cc2ccccc2)CC1,0,-11,·,i,·,5,1,3,
CC(C)(C)NCc1cc2ccccc2[nH]c1=O,·,14,5,i,-19,-3,1,-2,
O=[N+]([O-])c1cccc(/C=N/Nc2nc(N3CCOCC3)nc(N3CCOCC3)n2)c1,-7,-4,-10,i,·,-4,-2,-5,
COc1cc(NC(=O)CS(=O)(=O)c2ccc(C)cc2)cc(OC)c1OC,·,-4,-5,·,-6,-1,2,6,
Cc1ccc(SCCNC(=O)CN2C(=O)c3ccccc3S2(=O)=O)cc1,-85,2,-14,i,-16,3,7,6,
CCN1CCN(Cc2ccc(NC(=O)Nc3ccc(OC)cc3)cc2)CC1,10,-12,-10,i,3,-3,3,-8,
CCS(=O)(=O)c1ccc2oc(SCC(=O)NCCc3ccc(OC)cc3)nc2c1,-2,15,-5,i,·,4,-2,-7,
COc1ccc(S(=O)(=O)N2CCN(C(c3ccccc3)c3ccccc3)CC2)cc1NC(C)=O,3,-12,-12,i,-11,3,2,-10,
CN(C)c1ccc(/C=C2/C=C(c3ccc4c(c3)CCCC4)OC2=O)cc1,-4,23,7,i,·,14,-4,-6,
CN(c1ccccc1C(=O)Nc1ccc(F)c(F)c1)S(C)(=O)=O,3,-4,1,i,-17,2,-2,0,
COc1ccc(C2Nc3cc(OC)ccc3-n3cccc32)cc1 (stereo not drawn),-4,-1,11,?,-9,-3,1,13,
OCC[C@@H]1C[C@H](O)[C@@H](O)[C@@]2(OCCCc3ccccc32)O1,23,1,0,i,-19,0,0,-2,
COc1ccc2cc3c(N)c(C(=O)NCc4ccco4)sc3nc2c1,-441,?,1,·,-27,-13,-1,-2,
C=CCOc1cccc(C2/C(=C(/O)c3ccc(Cl)cc3)C(=O)C(=O)N2CCN2CCOCC2)c1 (stereo not drawn),-381,-13,-12,i,-18,3,3,14,
CN(Cc1ccc(F)cc1)Cc1nc(-c2ccccc2)no1,3,-18,0,i,4,-2,0,3,
Cc1noc(/C=C/c2ccco2)c1S(=O)(=O)N1CCC(C(=O)N2CCc3ccccc3C2)CC1,·,66,·,i,-15,-26,-6,-10,eIF4H inh retest=49;PABP polyA inh retest=-2
Cn1c(=O)n(-c2cccc(Cl)c2)c(=O)n1C,·,-14,-6,i,-9,1,4,-3,
CN(Cc1ccccc1)C(=O)CCC1CCN(C(=O)c2ccccc2C(F)(F)F)CC1,-4,22,-2,i,22,3,-1,5,
O=C(Oc1ccc(Nc2ncnc3ccccc23)cc1)c1cccnc1,21,-7,·,·,-9,-2,-2,2,
O=C(Nc1ccc(F)cc1Cl)c1ccc2c(=O)n3c(nc2c1)CCCCC3,·,-2,-16,i,-6,4,-5,-8,
O=C(NC1CCCCC1)c1ccc(S(=O)(=O)NCc2ccco2)cc1,-35,-3,-8,i,-6,3,-4,2,
Cc1cccc2[nH]c(-c3ccc(NC(=O)c4ccco4)cc3)nc12,·,-3,0,i,-20,6,-1,-7,
COC1=C/C(=C/c2c(N)n3nc(CC(=O)N4CCCC4)sc3nc2=O)C=CC1=O,-2,9,13,i,-14,-32,23,-8,
Cc1cc(Nc2ncc(Cl)cc2Cl)n(-c2ccccc2C)n1,1,6,-5,i,-17,0,0,1,
CN(C)S(=O)(=O)Nc1cc(F)cc(F)c1,23,-6,·,i,-18,-1,0,3,
O=C(NNc1cc(N2CCOCC2)nc(N2CCOCC2)n1)c1ccc(Cl)cc1Cl,-1,-1,7,i,12,-3,0,0,
Cc1cccc(NC(=O)CSc2nc(N)cc(N)n2)c1,18,1,-9,i,-9,1,0,2,
COc1cccc(C2C(C(=O)c3cc4ccccc4o3)=C(O)C(=O)N2c2cc(C)on2)c1 (stereo not drawn),0,9,-13,i,-13,-1,-1,8,
C/C(CC(=O)Nc1ccccn1)=N\NC(=O)C(=O)Nc1ccccc1C,·,14,-16,i,-15,1,2,-10,
COc1ccc(C(=O)N(Cc2ccccc2)c2cccc(C)c2)cc1,9,-16,21,i,-12,-8,-2,10,
CN(C)S(=O)(=O)c1ccc(C(=O)N2CCCC2c2nc3ccccc3s2)cc1 (stereo not drawn),·,-4,-8,i,-14,1,3,-9,
CNc1ncc(C(=O)c2ccc(-c3ccccc3)cc2)s1,-50,2,28,i,-10,5,-8,4,
CN(CC(=O)Nc1ccc(F)cc1)C(=O)c1ccccc1Sc1ccccc1C#N,-6,·,·,·,-9,0,-2,·,
CN(/N=C/c1cc(Cl)cc(Cl)c1O)C(=S)NC(C)(C)C,13,1,100*,i,·,0,1,7,
CCc1cc2cc3c(cc2nc1SCC(=O)Nc1c[nH]c(=O)[nH]c1=O)OCO3,7,2,13,i,-14,-1,0,-7,
O=C(CSc1nc2c([nH]c3ccccc32)c(=O)n1-c1cccc(Cl)c1)N1CCOCC1,-35,-4,10,i,-18,-2,-3,-10,
Cc1ccc(N=C2C(=O)Nc3ccc(Br)cc32)cc1,-16,4,14,i,-5,-1,8,14,
CCCN(CC(=O)Nc1ccccc1OC)C(=O)CCC(=O)c1ccc(F)cc1,14,·,-8,i,-1,2,-1,·,
OC(c1ccc2c(c1)OCO2)c1ncc(-c2ccccc2)[nH]1 (stereo not drawn),-6,·,·,·,-10,2,2,·,
O=C(NCc1nnc(SCC(=O)N2CCCC2)o1)c1c(F)cccc1Cl,7,5,-7,i,-15,-2,4,2,
Cc1ccc(CNC(=O)CN(C(=O)C2(C)CC(=O)N=C3C=CC=CN32)c2ccccc2F)cc1 (stereo not drawn),-12,-1,-7,?,-9,-3,0,-1,
CC(NC(=O)c1cc2c(cc1Cl)N1CCCCCC1=NS2(=O)=O)c1ccc(S(N)(=O)=O)cc1 (stereo not drawn),14,·,-3,i,-11,2,6,·,
COc1cccc(-c2ocnc2C(=O)Nc2ccc3c(c2)CCC3)c1,9,-1,9,i,-13,0,2,-2,

# In the list so far, 2 have a tert-butyl group.
SMILES,HIV Env fusion,eIF4H inh,CSC inhib,Rce1 inhib,Yeast UUG start,MT1-MMP act inh,MT1-MMP act inh RFP,PABP polyA inh,others
CC(C)(C)NCc1cc2ccccc2[nH]c1=O,·,14,5,i,-19,-3,1,-2,
CN(/N=C/c1cc(Cl)cc(Cl)c1O)C(=S)NC(C)(C)C,13,1,100*,i,·,0,1,7,

# Next structures:
SMILES,HIV Env fusion,eIF4H inh,CSC inhib,Rce1 inhib,Yeast UUG start,MT1-MMP act inh,MT1-MMP act inh RFP,PABP polyA inh,others
O=C(CCC(=O)N1CCN(c2ccc(F)cc2)CC1)c1ccccc1,-3,-13,-5,i,-17,-2,1,4,
CCOc1ccc(CN(C)C(=O)CNC(=O)c2ccc3ccccc3c2)cc1OC,12,6,8,i,0,-1,-5,-5,
COC(=O)c1ccc(NC(=O)c2cccc(Cl)c2)o1,-36,-3,35,i,-15,7,-6,-7,
CCNC(=S)NNC(=O)CCn1c2ccccc2c2ccccc21,-57,3,14,i,-39,1,0,-1,
COc1ccccc1Cn1c(=S)[nH]c2cc(C(=O)NCC3CCCO3)ccc2c1=O (stereo not drawn),-111,-4,-17,i,·,-5,-12,-4,
CCCCNS(=O)(=O)NC(=O)C1=C(N2CCCC2)COC1=O,-8,·,4,·,-1,1,2,·,
COc1ccc(N2C(=O)CCC(C(=O)NCc3ccccn3)C2c2ccc(F)cc2)cc1 (stereo not drawn),-63,-6,-3,i,-11,0,8,-4,
COc1ccc(NC(=O)Nc2cccs2)cn1,-8,35,-8,i,-16,4,4,36,
C[C@@H](NC(=O)c1ncn(Cc2ccccc2)c1C(=O)N[C@H](C)c1ccccc1)c1ccccc1,13,·,26,·,-14,-6,-6,·,
CCCC(=O)N1CCC1(C)C(=O)Nc1cc(-c2ccccc2)nn1C (stereo not drawn),-50,·,·,·,-16,0,4,·,
CCCn1c(SCN2C(=O)c3ccccc3C2=O)nc2cc(Cl)ccc2c1=O,-22,3,·,i,·,-7,-19,-5,
O=C(Oc1cccc(-n2cnnn2)c1)c1ccccc1,12,-6,-5,i,·,1,5,-1,
CCNC(=S)NCc1ccc2[nH]c(C)cc2c1,-3,-9,·,i,-33,4,5,1,
CC1(C)S[C@@H]2[C@H](NC(=O)COc3ccccc3)C(=O)N2C1C(=O)OCc1cc2ccccc2n1S(=O)(=O)c1ccccc1 (stereo partly drawn),·,18,-13,i,·,·,·,-1,
O=C1C2CCCCN2C(=O)N1CCCCN1CCN(c2ccc(F)cc2)CC1 (stereo not drawn),1,2,-12,i,-12,-6,-2,19,
